BJeLR viability: MLPCN primary cell-based screen for lethality selective to Ras in HRASV12 cells. BJeLR (HRASV12) viability, CellTiter-Glo ATP luminescence, 48 h; reference of the scale not given here. actives 0.17% (n = 300,000). AID 1554, 2009. inhibition, % (test concentration not listed);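 active = replicate mean above 50%; inconclusive = above 50% but judged a plate artefact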;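 also: 50 nL library stock added to about 25 µL; numbers are from one replicate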
RN4220 kill: growth inhibition of S. aureus RN4220, primary screen, OD600 | 16 h | inhibition, % (test concentration not listed) | actives 0.33% (n = 330,000) | AID 1259311, 2017;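 active = z-score of -3 or lower and OD600 up to 0.18 on both plates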;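 also: plate controls were untreated cells for no effect and reference antibiotic for full effect; stock transfer was 100 nL into about 80 µL; one replicate is shown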
Mtb hypoxia inh: PubChem AID 1159583; fluorescence inhibition, % (no concentration beside the values); actives 0.1% (n = 300,000); M. tuberculosis hypoxia-regulated fluorescent reporter, fluorescence;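 active = 35 to 45% if threefold the growth effect, above 45% if 1.5-fold the growth effect; inactive = the rest, general growth blockers included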;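 also: wells of about 50 µL received 100 nL stock; 0% = vehicle wells and 100% = reference inhibitor wells; whole bacteria with a GFP reporter of the hypoxia response; strong numbers were not always called active; many hits fall short of the cut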
ugtP null kill: growth inhibition of ugtP-null S. aureus, primary screen, RN4220 ugtP deletion, OD600 | 16 h; some inactives read as strong as hits | growth inhibition, % (no concentration beside the values) | actives 0.54% (n = 330,000) | AID 1259309, 2017;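 active = z-score under -3 and OD600 up to 0.15 on both plates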;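 also: plate controls were untreated wells for no effect and antibiotic for full effect; wells of about 80 µL received 100 nL stock; the first replicate is given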
PrP 5UTR inh: inhibition of PrP 5' UTR reporter expression; cell-based PrP 5' UTR mRNA reporter, plate reader; inhibition, % (no concentration beside the values); actives 0.35% (n = 340,000);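 active = every replicate at 50% or more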;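 also: 0 = median of the neutral control wells; tested in H4 reporter cells; numbers are from one replicate; inactives centre near -14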
Bead autofluor: flagged as autofluorescent in microsphere protease counterscreen; actives 3.1% (n = 360,000); compound autofluorescence counterscreen, microsphere flow cytometry; active compounds read high; fluorescence intensity (no concentration beside the values);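 active = at least 3 SD above the mean of all compounds, about 16000 in these data; inconclusive = too few beads counted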;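 also: 100 nL of 1 mM stock went into each well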
Mtb hypoxia inh growth: further read-out of Mtb hypoxia inh, marked with its call; growth inhibition, %; measured here: M. tuberculosis growth (absorbance);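 0% = vehicle and 100% = reference antibiotic; read after six days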
The depositor's hits bear a star; ? = inconclusive; · = not tested or not shown; & = joins results of further samples. An unsorted share of the library. About 4% of those tested had a hit in this group.

Results follow in this order: Mtb hypoxia inh	Bead autofluor	Mtb hypoxia inh growth	RN4220 kill	ugtP null kill	BJeLR viability	PrP 5UTR inh
COc1cccc(/C=C(\C)C(=O)c2c(C)cc(C)[nH]c2=O)c1OC
→ 6	3236	2	4.1	11	-5	-16
Cc1cccc(NC(=O)[C@@H](NC(=O)N2C[C@H]3C[C@@H](C2)c2cccc(=O)n2C3)C(C)C)c1
→ ·	5625	·	4.2	-3	-5	-25
CN1C(=O)[C@H]2[C@@H](/C=C/c3ccccc3)N3C(=O)CN(Cc4ccccc4)C(=O)[C@@]3(C)[C@H]2C1=O
→ ·	3096	·	·	·	17	-35
O=c1nc(/C=C/c2ccccc2C(F)(F)F)cc(C(F)(F)F)[nH]1
→ 5	3539	4	-7.9	7	8	-28
COc1ccc(Br)cc1/C=N/n1c(-c2ccccc2)n[nH]c1=S
→ ·	3771	·	·	·	-2	-47
Cc1c(NC(=S)N2CCN(c3cccc(Cl)c3)CC2)c(=O)n(-c2ccccc2)n1C
→ -4	4499	0	6.0	9	8	-20
COc1ccc(S(=O)(=O)N2CCCCCC2)cc1C(=O)OCC(=O)NCC(C)C
→ -3	4464	4	0.1	-1	-1	-4
C=CCc1ccccc1OCC(O)CN1CCN(Cc2ccc3c(c2)OCO3)CC1 (stereo unspecified)
→ -4&8	10303&4577	4&12	4.1&3.2	4&-7	-1	-18&-10
O=S1(=O)N=C(c2ccccc2)C=C(c2ccccc2)N1
→ 6	3718	2	3.0	7	·	-5
Cc1ccn(CC(=O)NN=Cc2cc([N+](=O)[O-])ccc2O)n1
→ 3	·	4	93*	83*	·	·
COCC(=O)Nc1nnc(SCC(=O)NCc2cccs2)s1
→ 18	8119	13	3.9	-4	7	-22
CCOc1ccc(S(=O)(=O)N(C)c2ccc(OCC(=O)Nc3nc(-c4cc(OC)ccc4OC)cs3)cc2)cc1
→ -16	1966	-2	-0.5	-25	-7	-3
O=C(CN1CCOCC1)N/N=C/c1ccccc1
→ ·	3243	·	·	·	-9	-33
CCCCc1ccc(NC(=S)NCc2ccccc2OC)cc1
→ 5	4677	24	2.2	3	-2	-24
CCNC(=S)N1CCN(C(c2ccccc2)c2ccccc2)CC1
→ -1	8055	3	-6.9	8	0	-18
CCOc1ccc(N=Nc2c(N)[nH][nH]c2=O)cc1
→ 8	2116	-5	0.5	6	0	-87
O=[N+]([O-])c1ccc(Cc2ccc([N+](=O)[O-])cc2)cc1
→ 10	4372	4	1.3	-3	·	-6
COc1cccc(NC(=O)CCCCCN2C(=O)[C@@H]3Cc4ccccc4CN3C2=O)c1
→ -2	5389	-2	2.0	2	4	-14
CCOC(=O)CSc1n[nH]c(NC(=O)NC(C)C)n1
→ 5	2017	7	0.1	12	-7	-33
CCC(=O)Nc1cccc(C2=NOC3(C2)C[C@@H](C(N)=O)N(C(=O)C(c2ccccc2)c2ccccc2)C3)c1 (stereo partly specified)
→ ·	3634	·	·	·	-5	-19

Random excerpt: 2 entries already listed, in no set order.
Results follow in this order: Mtb hypoxia inh	Bead autofluor	Mtb hypoxia inh growth	RN4220 kill	ugtP null kill	BJeLR viability	PrP 5UTR inh
COCC(=O)Nc1nnc(SCC(=O)NCc2cccs2)s1
→ 18	8119	13	3.9	-4	7	-22
CCOC(=O)CSc1n[nH]c(NC(=O)NC(C)C)n1
→ 5	2017	7	0.1	12	-7	-33

Further compounds follow.
Results follow in this order: Mtb hypoxia inh	Bead autofluor	Mtb hypoxia inh growth	RN4220 kill	ugtP null kill	BJeLR viability	PrP 5UTR inh
O=C(CNC(=O)c1ccccc1Br)N/N=C/c1cccnc1
→ ·	5785	·	·	·	-4	-8
CCc1cccc(NC(=O)CSCc2nc3sc(C)c(C)c3c(=O)[nH]2)c1
→ 2	?	1	12	2	·	0
COc1ccc(Cl)cc1NC(=S)NCCc1ccc(F)cc1
→ 5	5744	8	1.5	-11	-2	-15
COC(=O)c1ccccc1Sc1c(C=NOCc2ccc(Cl)cc2)c(C(F)(F)F)nn1C
→ 2	·	-5	-8.2	10	·	·
Cc1ccccc1OCc1nc(-c2ccccc2)no1
→ ·	3271	·	0.8	16	-1	-133
CCn1c(O)c(N=NC(=O)CNC(=O)c2ccccc2F)c2ccccc21
→ 2	5432	5	-1.8	1	5	-30
O=C(Cn1nc(Cc2cccnc2)c2ccccc2c1=O)Nc1ccc2c(c1)OCO2
→ 1	6038	1	2.6	7	-9	-11
O=c1c2ccccc2nc(SCc2ccccc2Cl)n1Cc1ccccc1
→ 5	9934	11	3.8	3	-1	-24
COc1ccc(S(=O)(=O)Nc2ccccc2-c2nc3ccccc3[nH]c2=O)cc1
→ 13	5661	12	1.4	-2	4	-8
COc1cc(/C=C(\NC(=O)c2ccccc2)C(=O)NC(C(=O)O)c2ccccc2)cc(OC)c1OC (stereo unspecified)
→ ·	3824	·	3.2	-3	7	26
CC1CN(C(=O)CCC(=O)N2CCN(c3cccc(C(F)(F)F)c3)CC2)c2ccccc2O1 (stereo unspecified)
→ -2	4785	-5	-2.6	-4	9	-3
Cn1c(=O)oc2cc(S(=O)(=O)N3CCCC(C(=O)NCC4COc5ccccc5O4)C3)ccc21 (stereo unspecified)
→ 10	4326	0	2.6	13	4	-73
COc1ccc(S(=O)(=O)N2CCCOC2CNC(=O)C(=O)NCCCn2ccnc2)cc1 (stereo unspecified)
→ -1	2551	3	6.1	-2	1	-11
CC(C)(C)Nc1scc(-c2ccccc2)[n+]1-c1ccccc1
→ 5	3609	-2	1.2	3	12	14
O=C(NCCc1ccc(Cl)cc1)C1CCN(C(=O)c2sccc2-n2cccc2)CC1
→ -4	2484	15	0.2	0	15	-1
COc1ccc(NC(=O)c2cn(CCC#N)nc2-c2ccc([N+](=O)[O-])cc2)cc1
→ 10	4284	1	3.5	0	23	-29
C/C(C=NNC(=O)c1n[nH]c2c1CCC2)=C\c1ccccc1
→ 5	·	7	12	13	·	·
CCOC(=O)N1CCN(C(=O)C2CC(=O)N(c3ccc(C)cc3)C2)CC1 (stereo unspecified)
→ -10	5840	10	-2.6	1	7	-8
COc1ccccc1N(CC(=O)Nc1cc(C)on1)S(=O)(=O)c1cccc(C(F)(F)F)c1
→ 20	3738	43	4.1	-6	·	-22
N#C/C(=C\c1cn(Cc2ccc(C#N)cc2)c2ccccc12)C(=O)NCc1cccs1
→ -11	2432	7	0.0	-8	-5	-14
CN(C)CCCNC(=O)c1cc(C(=O)Cc2ccccc2)c[nH]1
→ -9	3658	-15	0.1	1	-2	-26
O=C(Nc1ccccc1C(=O)N1CCN(CCO)CC1)c1cccc([N+](=O)[O-])c1
→ -2	·	-5	0.7	1	5	-15
CC(=O)Nc1nc(-c2cccs2)cs1
→ 5	4438	0	7.5	9	2	-3
C/C(=C(/NC(=O)c1ccccc1)C(=O)O)c1ccco1
→ 0	2425	4	2.7	0	-8	-20
COC(=O)C1(C)NC(c2ccc(O)cc2)C2C(=O)N(c3ccc(F)cc3)C(=O)C21 (stereo unspecified)
→ 6	2876	1	2.2	5	0	-6
C/C(N)=C(/C#N)C(=O)CN1C(=O)NC(Cc2c[nH]c3ccccc23)C1=O (stereo unspecified)
→ 11	3753	3	4.3	-3	1	-15
O=C(NCCCn1ccnc1)c1cn(-c2ccccc2)nc1-c1ccc(F)cc1
→ 4	6592	-2	2.1	9	10	-32
CCN(C(=O)COC(=O)COc1ccc(Cl)c(C)c1)C1CCS(=O)(=O)C1 (stereo unspecified)
→ 1	?	14	3.4	1	·	-11
O=C(C1CCN(CC2CC=CCC2)CC1)N(CCc1ccccc1)Cc1ccccc1 (stereo unspecified)
→ 5	2206	2	1.7	-1	11	-17
COc1cccc(C2(O)CC(C(F)(F)F)=NN2C(=O)c2ccccn2)c1 (stereo unspecified)
→ -1	4041	2	12	16	-1	-25
CNC(=S)NNC(=O)Cc1ccc(O)cc1
→ 0	1724	6	-0.6	-8	7	-17
COc1ccc(Nc2nc(C(=O)N(CCO)Cc3ccccc3)cs2)cc1
→ 15	3164	7	0.4	7	-2	-14
COc1cc2c(cc1OC)-c1c(OC)c(OC)cc3c1[C@H](C2)[N+](C)(C)CC3
→ ·	2934	·	·	·	2	-7
O=C(CCN1C(=O)c2ccccc2C1=O)N1CCN(Cc2ccc(Cl)cc2Cl)CC1
→ 0	?	2	8.2	8	8	-11
O=C(CN1C(=O)COc2ccccc21)NCCN1CCc2ccccc2C1
→ 7	7567	1	2.5	8	-3	-28
CCN(CC)CCC(C)OC(=O)c1ccc(O)cc1O (stereo unspecified)
→ 7	4480	6	1.9	2	11	-19
CCCN(CCC)CCCNS(=O)(=O)c1cc(Br)cc2c1N(C(C)=O)CC2
→ -5	4561	3	3.6	3	-1	-4
COc1ccccc1NCCC(=O)OCC(=O)Nc1ccccc1Cl
→ 8	3683	4	4.5	2	·	-39
CC[C@H](C)[C@H](NS(=O)(=O)c1ccc(C)cc1)C(=O)N1CCC(C(=O)N[C@@H](C)C(=O)O)CC1
→ 0	7124	2	2.6	1	0	-10
COc1ccc(S(=O)(=O)N2CCN(CC(=O)NC(Cc3ccccc3)C(C)=O)CC2)cc1 (stereo unspecified)
→ 1	3931	7	2.8	7	·	-18
Cc1ccc(-n2c(=O)[nH]cc(C(=O)Nc3ccc4c(c3)OCO4)c2=O)cc1C
→ 13	4974	7	5.2	11	13	-30
CCCC(=O)Nc1ccc(N2CCN(S(C)(=O)=O)CC2)cc1
→ 10	9766	-1	2.8	7	9	-21
CCOc1c(N2CC(C)OC(C)C2)c(=O)c1=O (stereo unspecified)
→ 2	3683	7	1.8	8	8	-100
COc1cc(/C=C/C(=O)c2ccc(NS(=O)(=O)c3ccc(C)cc3)cc2)cc(OC)c1O
→ -18	2631	1	6.7	-2	-24	-19
COc1ccc(NC(=O)CSc2nc(-c3ccncc3)nn2CC(=O)N2CCCC2)cc1
→ -6	9056	1	4.9	-3	-11	-23
CCCCOc1ccc(-c2nnc(-c3ccco3)o2)cc1
→ 8	21178*	11	7.7	1	1	4
CCN(CC)S(=O)(=O)c1cccc(-c2nc3n(n2)Cc2ccccc2-3)c1
→ 3	10210	4	6.4	-8	3	-41
COc1ccc(OCC(O)CN2CCCCCC2)cc1 (stereo unspecified)
→ 7	10595	4	2.3	4	-7	-8
COc1ccc(Br)cc1CN1CCN(C(=O)c2cccc(OC)c2OC)CC1
→ 13	4470	20	6.7	2	-1	-13
CCOC(=O)C(=O)N=Nc1c(O)[nH]c2ccccc12
→ 6	1948	-8	2.1	2	10	-7

The listing continues:
Results follow in this order: Mtb hypoxia inh	Bead autofluor	Mtb hypoxia inh growth	RN4220 kill	ugtP null kill	BJeLR viability	PrP 5UTR inh
Cc1ccccc1NC(=O)Cc1nc(CSc2nnc(C3CCCCC3)n2N)cs1
→ -3	22506*	2	4.2	1	5	-5
CCCC(=O)N(C1CC(C)C(C#N)(C#N)C1(C#N)C#N)N(C)C (stereo unspecified)
→ 10	3557	7	2.1	2	-47	-20
O=C1COc2ccc(C(=O)COC(=O)c3cccnc3Cl)cc2N1
→ 14	3240	2	2.1	3	3	-14
Cc1cc(C)nc(N/C(=N\S(=O)(=O)Cc2ccccc2)Nc2ccccc2)n1
→ 16	·	10	7.0	12	·	·
O=C(c1ccc2nc[nH]c2c1)N1CCN(S(=O)(=O)c2cccc(F)c2)CC1
→ 2	?	-7	0.3	4	2	-7
CCN(CC)C(=O)CSc1nnc(COc2ccc(OC)cc2)n1N
→ 4	3228	12	13	-69	2	-9
Cc1cccc(NC(=O)Cc2ccc(Br)cc2)n1
→ 7	3924	17	1.8	-1	-21	-27
O=S(=O)(Cc1ccccc1)N1CCn2c(nc3ccccc32)C1
→ 6	5543	6	-5.2	-5	-4	-3
O=C(NCC1CCCN(Cc2ccc3c(c2)OCCO3)C1)c1ccc2c(c1)OCO2 (stereo unspecified)
→ 4	·	-6	2.4	15	4	-25
O=C(NCc1ccccc1Cl)C(=O)NCC(c1ccco1)N1CCOCC1 (stereo unspecified)
→ 13	4508	7	2.2	6	0	-25
COc1cc(C(=O)N(C)CC2CCN(CCc3cccc(C(F)(F)F)c3)CC2)ccc1C
→ -3	4671	5	2.9	6	1	-9
COc1ccc(S(=O)(=O)N2CCN(c3cnccn3)CC2)cc1OC
→ -8	3615	0	-2.2	-11	·	10
Cc1[nH]n(-c2ccc([N+](=O)[O-])cc2)c(=O)c1C=NCCN1CCN(C(=O)C(C)C)CC1
→ 2	3017	12	1.7	11	28	-26

Bioassay records as filed in PubChem.
